AF4-AF9 inh – inhibitors of AF4 peptide binding to AF9, primary screen, biochemical, AlphaScreen, biotin-AF4 peptide, FLAG-AF9, single point. Protein AF-9 (Homo sapiens), P42568. hit rate 0.47% among 350,000. AID 651704, 2012. inhibition, % at 10 µM;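 active means every replicate reaching a set inhibition limit, whatever the replicate mean, cut at about 25% in these data; inconclusive means mean inhibition reaches that limit but some replicates miss it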;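 further: 0% = plate neutral control median and 100% = total signal loss; the record names both 10 and 1 µM as test concentration; the first replicate is given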
Target sequence (P42568 whole entry, looked up): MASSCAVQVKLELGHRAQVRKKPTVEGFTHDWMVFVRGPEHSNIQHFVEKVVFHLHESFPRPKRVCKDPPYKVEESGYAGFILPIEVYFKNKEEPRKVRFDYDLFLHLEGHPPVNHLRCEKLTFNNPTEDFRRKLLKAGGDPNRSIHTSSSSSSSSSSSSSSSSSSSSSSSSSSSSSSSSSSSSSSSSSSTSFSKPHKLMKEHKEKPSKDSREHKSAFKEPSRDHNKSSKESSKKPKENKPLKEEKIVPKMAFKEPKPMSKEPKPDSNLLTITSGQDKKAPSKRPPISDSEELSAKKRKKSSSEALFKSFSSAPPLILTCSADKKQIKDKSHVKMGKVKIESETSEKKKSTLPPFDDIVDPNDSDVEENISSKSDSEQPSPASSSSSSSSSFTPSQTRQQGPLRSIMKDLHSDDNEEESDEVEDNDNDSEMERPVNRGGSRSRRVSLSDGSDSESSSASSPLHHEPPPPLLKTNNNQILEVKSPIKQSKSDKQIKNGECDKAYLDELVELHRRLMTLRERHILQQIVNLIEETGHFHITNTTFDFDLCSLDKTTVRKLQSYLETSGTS
Calb FLC – C. albicans growth inhibition with fluconazole, primary screen, CaCi-2 strain, Alamar Blue fluorescence. growth inhibition, % (concentration not given with the values). hit rate 0.57% among 300,000. C. albicans CaCi-2 (fluconazole-resistant clinical isolate) + fluconazole, 48 h;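 active means most replicates above 75%; inconclusive means exactly half above 75%; inactive means most below 75%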;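 further: all wells also contain fluconazole at 8 µg/ml as a sub-toxic cotreatment; 0% = median of DMSO wells and 100% = median of geldanamycin control wells; wells of about 8 µL received 7.5 nL stock; the first replicate is given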
T cruzi repl – inhibitors of intracellular T. cruzi growth, primary screen, luminescence, NIH3T3 host cells. T. cruzi beta-gal in NIH3T3, 90 h. inhibition, % (no concentration beside the values). hit rate 1.4% among 300,000;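 active means mean inhibition across valid replicates above about 55%, limit read from the data; inconclusive means mean below that limit but half or more replicates reach it; inactive means mean below it, under half of replicates reach it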;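 further: signal also drops with host cell toxicity which is not excluded here; 0% = plate median of DMSO wells and 100% = zero luminescence signal; higher percent means less beta-gal luminescence so fewer parasites; stock transfer was 50 nL into about 50 µL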
FGF22 binding – binders of human FGF22 protein, primary screen, FGF22 synaptogenesis inhibitor project, biophysical, thermal shift, single point | AID 651658, 2012 | calls only at 9.99 µM | hit rate 1.5% among 340,000 | Fibroblast growth factor 22 (Homo sapiens), Q9HCT0 | recombinant FGF22 thermal shift, SYPRO orange fluorescence; percent of sucrose octasulfate shift, DMSO zero;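 active means melting point raised past a set limit in the mean and every replicate; inconclusive means no clear call; three in four hits are not shown here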
Target sequence (Q9HCT0 whole entry, looked up): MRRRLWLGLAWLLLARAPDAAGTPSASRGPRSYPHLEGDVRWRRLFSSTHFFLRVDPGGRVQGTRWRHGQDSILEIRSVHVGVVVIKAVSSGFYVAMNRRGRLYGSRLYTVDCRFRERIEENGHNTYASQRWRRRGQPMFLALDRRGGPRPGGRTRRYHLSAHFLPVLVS
Ecoli rRNA inh – reduced GFP signal of wild-type E. coli, primary screen, bacterial rRNA inhibitor project, GFP/RFP fluorescence, OD600, single point; E. coli WT GFP vs humanized-ribosome RFP mutants, 24 h; hits give low values; DMSO median 0, no signal -100; GFP signal change (wild-type ribosome), % (concentration not given with the values); hit rate 1.6% among 350,000; AID 720706, 2013;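 active means significant combined selectivity score with lowered wild-type GFP, culture density cut under 30%, mutant RFP and density less affected; inactive means any of these conditions unmet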; further: one replicate is shown; some compounds called inactive have numbers as strong as hits
RanGTP-Impb inh – inhibitors of RanGTP-importin-beta interaction, primary screen, biochemical, FRET, CFP-Ran, YFP-importin-beta, homogeneous; hit rate 1.1% among 300,000; cell-free CFP-Ran/YFP-importin-beta FRET ratio; inhibition, % (test concentration not listed);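 active means most replicates above 15%; inconclusive means exactly half above 15%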;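 further: 0% = DMSO wells and 100% = Ran loaded with GDP instead of GTP; wells of about 40 µL received 100 nL stock; the first replicate is given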
ALR inh – inhibitors of human ALR sulfhydryl oxidase, primary screen, biochemical, H2O2 detection, HRP-luminol luminescence, single point. inhibition, % (no concentration beside the values). FAD-linked sulfhydryl oxidase ALR (Homo sapiens), P55789. hit rate 3.8% among 290,000. purified ALR, DTT oxidation;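 active means mean and each replicate at 75% or more; inconclusive means only one of the two met; inactive means neither met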;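 further: stock transfer was 7.5 nL into about 7.5 µL; 0% = neutral wells and 100% = wells with inactivated enzyme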
Target sequence (P55789 whole entry, looked up): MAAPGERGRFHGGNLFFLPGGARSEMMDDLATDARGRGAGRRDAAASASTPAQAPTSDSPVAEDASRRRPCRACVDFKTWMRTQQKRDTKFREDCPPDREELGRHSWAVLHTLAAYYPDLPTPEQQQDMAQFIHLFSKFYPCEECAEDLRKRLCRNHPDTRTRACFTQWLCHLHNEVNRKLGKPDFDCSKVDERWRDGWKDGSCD
Beta apoptosis – inhibitors of cytokine-induced beta cell apoptosis, primary screen, luminescence | INS-1E cytokine-induced death, ATP luminescence, 48 h; percent of positive-control rescue, neutral wells zero | protection from apoptosis, % (concentration not given with the values) | hit rate 0.8% among 300,000;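 active means all replicates at 75% or more, or half of them and the mean; inconclusive means half reach 75% but not the mean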;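 further: 0% = cytokine-treated negative control wells and 100% = positive control rescue; higher means more ATP so stronger rescue from cytokine killing; wells of about 40 µL received 100 nL stock; the first replicate is given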
Ecoli rRNA inh OD600 – also measured in Ecoli rRNA inh; calls as there; OD600 change, %; measured here: OD600 growth;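 optical density of the mix in the first replicate; 0 = DMSO median and -100 = no signal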
Ecoli rRNA inh RFP – further read-out of Ecoli rRNA inh, marked with its call; RFP signal change, %; measured here: RFP humanized mutant strains;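 first replicate; 0 = DMSO median and -100 = no signal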
Active calls of the source: *; i = inactive; ? = inconclusive; . = no result given; & = joins results of further samples.

SMILES	AF4-AF9 inh	Calb FLC	T cruzi repl	FGF22 binding	Ecoli rRNA inh	Ecoli rRNA inh OD600	Ecoli rRNA inh RFP	RanGTP-Impb inh	ALR inh	Beta apoptosis
Cc1cc(NC(=O)COC(=O)CCNS(=O)(=O)c2c(Cl)cccc2Cl)no1	-4.4	8	-16	i	-9	-6	-1.8	1.0	-5	-6
COCCNC(=O)NC12CC3(C)CC(C)(CC(C)(C3)C1)C2	-1.0	5	15	.	-1	-13	-3.1	0.1	-6	4
c1ccc(COc2cccc(CN3CCN(c4ccccn4)CC3)c2)cc1	.	-15	14	.	.	.	.	3.6	-1	2
Cc1cc(NC(=O)c2ccc3c(c2)OCCO3)ccc1NC(=O)c1cc2ccccc2o1	-6.1	-4	18	i	-6	11	-6.8	-0.9	-13	7
Cc1ccc[n+](-c2nc3ccccc3nc2[N-]S(=O)(=O)c2ccccc2)c1	-0.8	-6	-1	i	-1	1	0.9	-4.6	.	6
CC(C)Cc1ccccc1S(N)(=O)=O	-4.9	-2	-32	i	12	1	3.2	1.0	-11	-5
N/C(CC(=O)Nc1cc(C(F)(F)F)ccc1Cl)=N\O	1.5	-8	14	i	11	12	0.5	5.7	14	-4
Oc1ccccc1C1=NCCNC(C(F)(F)C(F)F)=C1	.	-4	-10	.	.	.	.	1.4	65	-4
Cc1ccc(C)c(OCC(=O)Nc2ccccc2C(=O)NC2CC2)c1	-0.7	-5	3	i	14	15	-0.7	5.3	-2	3
CCCCCCCCCn1c2c(c(=N)c3c1CCC3)CCC2	.	36	48	.	.	.	.	7.3	-24	109*
O=C(COC(=O)c1ccc(F)c(S(=O)(=O)N2CCOCC2)c1)NCc1ccc(Cl)cc1	1.0	.	.	i	-10	-13	-2.1	.	-1	-3
CCCCn1c(N)c(N(CC(C)C)C(=O)c2ccc(-c3ccc(C(C)=O)cc3)o2)c(=O)[nH]c1=O	7.6	-7	0	i	12	15	1.2	3.8	.	.
Cc1ccc(-n2c(=S)[nH]c3[nH]ncc3c2=O)cc1	-5.2	1	-17	.	.	.	.	11	-4	-4
CC(=O)NN1C(=O)/C(=C\c2ccc(Cl)cc2)SC1=S	-0.6	-29	11	i	.	.	.	-3.2	-6	3
CCN(C(=O)COC(=O)C1CCN(S(=O)(=O)c2ccc3c(c2)OCCO3)CC1)C1CCCCC1	-0.2	0	10	.	-9	-10	2.5	-3.2	-6	-6
COc1ccccc1-c1nnc(SCc2ccccn2)n1C	.	18	1	.	.	.	.	4.9	-2	-4
CC(C)(C)c1ccc(Oc2ccc(NC(=O)C3CC=CCC3C(=O)O)cc2)cc1 (stereo not given)	-4.1	-14	-11	.	-37	-53	-9.2	1.3	63	2
CCOC(=O)c1c(C)[nH]c2cc(Br)c(O)cc12	.	30	0	.	.	.	.	-1.3	11	1
Fc1ccc(C2CCCN2Cc2nc(-c3cnccn3)no2)cc1 (stereo not given)	2.8	-12	-18	.	7	7	7.2	-1.7	0	-6
COc1ccc(-n2ccnc(SCC(=O)NC3CCCCC3)c2=O)cc1	.	10	13	.	.	.	.	-2.6	98*	-43
COc1ccc(COC(=O)CCNC(=O)c2ccc(Cl)cc2)cc1	-2.7	-18	2	i	2	1	2.9	-1.6	-4	-1
Cc1c(C(=O)NCCc2ccc(S(N)(=O)=O)cc2)cccc1[N+](=O)[O-]	-1.0	-5	-14	.	19	8	-1.8	-2.3	-12	-4
CNC(=O)CSc1nnc(COc2ccc(Cl)cc2)n1CCOC	.	-9	5	.	.	.	.	1.7	1	-12
NC(=O)NC(=O)COC(=O)c1cccc(NS(=O)(=O)/C=C/c2ccccc2)c1	0.9	0	-5	i	-6	-11	2.8	-2.1	-2	0
CCn1c(O)c(/C=N/N=C/c2ccc(OC)cc2)c2cc(C3=NNC(=O)CC3)ccc21	-15	-2	-7	i	10	4	1.3	11	-2	4
CN1CCN(S(=O)(=O)c2cccc3nsnc23)CC1	-20	-1	-3	i	4	5	-3.7	5.3	-16	1
CCC(C)NC(=O)c1ccc(NC(=O)C2CCCO2)cc1 (stereo not given)	.	-1	-9	.	.	.	.	-3.2	-22	1
Cc1nc(C)c(Oc2ccc(Cl)cc2Cl)c(=O)[nH]1	-0.7	-3	-4	i	7	6	-0.4	0.4	5	-5
CCN(CC)CCOC(=O)C1(c2ccc([N+](=O)[O-])cc2)CCCC1	4.7	.	.	i	-10	1	3.8	.	-2	-10
Cc1nnsc1NC(=O)OCc1ccccc1Cl	.	26	14	.	.	.	.	6.4	2	5
Cc1ccc(N(Cc2cc3ccc(C)cc3[nH]c2=O)C(=O)c2cccs2)cc1	.	-3	8	.	.	.	.	3.8	-4	1
CCOC(=O)c1cc(C(C)=O)c(=O)[nH]c1C	1.0	8	-9	.	11	7	14	0.5	-8	-1
Cc1ccccc1N(CC(=O)N1CCc2ccccc2C1)S(C)(=O)=O	-0.9	3	9	i	-10	-4	-0.2	-2.1	-32	4
CC(C)C(=O)N1CCN(c2ccc(NC(=O)c3ccc(Br)o3)cc2)CC1	.	-1	2	.	.	.	.	-6.8	3	37
CC(=O)Oc1ccc(-c2cccc(C(=O)OCC(=O)N(C)c3ccccc3)c2)cc1	1.3	18	-12	i	-15	-20	17	3.5	8	-4
Cc1ccc(-n2c(Cc3cccn3C)nnc2SCC(=O)Nc2ccc3c(c2)OCO3)cc1	16	-4	8	i	-8	-1	8.3	1.4	-1	1
COc1ccc(C(=O)NC2CC2)cc1OC1CCN(Cc2cnn(C)c2C)CC1	1.5	-9	-14	i	8	14	1.1	0.4	-2	-5
CCOC(=O)c1c(N)nn(C(=O)C(C)C)c1-c1ccccc1	.	.	3	.	.	.	.	6.2	3	-7
Cc1cc(C)c(C#N)c(SCc2ccccc2F)n1	1.4	-2	5	i	-18	-22	-4.8	-1.3	-4	1
O=C(c1ccccc1Oc1ccc([N+](=O)[O-])cc1)N1CCOCC1	0.4	-5	-10	i	8	12	1.5	3.8	-1	-3
O=C(Oc1ccccc1N1C(=O)C2CC=CCC2C1=O)c1ccc(Br)cc1 (stereo not given)	.	-4	7	.	.	.	.	4.6	-6	-5
Cc1ccc(/C=C/S(=O)(=O)NCC(=O)OCC(=O)Nc2c(F)cccc2F)cc1	4.3	-4	-19	i	6	5	-0.6	-1.4	.	-2
O=C(NCc1nc2ccccc2[nH]1)C1=C[C@H](C2CC2)C[C@H](OCCCCO)O1	-2.8&3.7	-9	5	i	5	8	0.1	1.4	-5	-6
COc1ccc2[nH]c3c(=O)n(Cc4ccc(C(=O)N5CCCC5)cc4)c(=S)[nH]c3c2c1	-4.7	-10	4	i	-6	3	0.6	3.8	1	-3
O=c1[nH]c(N/N=C/c2ccccc2Br)nnc1-c1ccccc1	.	11	12	.	.	.	.	-1.3	0	8
NS(=O)(=O)c1ccc(CCNC(=O)CCS(=O)(=O)c2ccc(Br)cc2)cc1	-9.0	-1	-15	i	1	9	-3.6	4.0	-5	-4
CS(=O)Cc1cc(Oc2ccccc2)nc(-c2ccncc2)n1 (stereo not given)	-0.7	-11	14	i	3	-5	-1.3	-3.9	-30	.
CCN(C(=O)COC(=O)c1cnc(C)cn1)c1c(N)n(Cc2ccccc2)c(=O)[nH]c1=O	0.3	.	.	i	2	6	-1.9	.	-3	-5
Cc1nc(C(=O)NC2CCOCC2)sc1C1(C)CC(c2cccc([N+](=O)[O-])c2)=NO1 (stereo not given)	3.9	6	4	i	3	2	0.6	-0.9	.	1
CCOC(=O)c1ccc(NC(=O)c2nc[nH]c2C(=O)N2CCN(c3ccccc3)CC2)cc1	-3.5	12	-4	i	1	-4	5.1	-3.7	1	0
Further structures.
SMILES	AF4-AF9 inh	Calb FLC	T cruzi repl	FGF22 binding	Ecoli rRNA inh	Ecoli rRNA inh OD600	Ecoli rRNA inh RFP	RanGTP-Impb inh	ALR inh	Beta apoptosis
CCCCCCCCNC(=O)c1cccnc1SCC(=O)Nc1ccc(OC)cc1OC	.	-1	28	.	.	.	.	0.2	-1	18
CCCCCc1n[nH]c2c1CCCC2	-0.9	-3	1	i	10	2	1.1	3.7	-16	-11
Cc1ccc(C(=O)CN(C(=O)c2ccc(Cl)c(Cl)c2)N2C(=O)C3C4C=CC(C4)C3C2=O)cc1 (stereo not given)	-8.7	6	50	i	6	-2	-4.3	-2.8	0	-3
Cc1ccc(OCCC(=O)Nc2ccc(S(=O)(=O)Nc3cc(C)nc(C)n3)cc2)cc1	0.1	7	1	i	-1	-1	-1.7	20*	3	2
O=C(O)CCCC(=O)NNc1nc(-c2ccccc2)c2cc(Cl)ccc2n1	1.5	1	-2	i	7	-2	2.1	9.9	74	-8
CC(C)OCCCN1C=C2C(=O)C(C)(OC(=O)CCc3ccccc3)C(=O)C=C2C=C1c1ccc(C#N)cc1 (stereo not given)	1.4	24	4	i	9	12	1.9	-6.6	-61	1
CCOC(=O)COc1ccc(Br)cc1/C=C/c1[nH]c(=O)[nH]c(=O)c1[N+](=O)[O-]	0.1	3	-10	i	-13	-11	0.2	-2.6	97*	-4
CN1CCN(S(=O)(=O)c2ccc3c(c2)CC(=O)N3C)CC1	1.0	5	-3	i	10	10	0.9	4.3	4	-3
CCOc1ccc2[nH]c(=O)c(CN(Cc3ccco3)C(=O)c3cccc(F)c3)cc2c1	.	3	10	.	.	.	.	-2.2	-5	6
COC(=O)c1oc2ccc(Br)cc2c1-n1cccc1	.	-14	-3	.	.	.	.	1.6	-6	-4
Cc1ccc(OCc2ccc(C(=O)Nc3ccc(S(N)(=O)=O)cc3)o2)cc1	-0.3	-13	5	i	2	-2	-1.6	-1.5	-21	.
CC(Cc1ccccc1)C(=O)Nc1ccc(Br)cc1 (stereo not given)	-19	9	-3	i	-5	-11	-4.1	0.3	-8	0
Cc1ccc(P(=Nc2ccccc2)(N2CCOCC2)N2CCOCC2)o1	3.4	6	0	i	11	27	-2.7	-2.2	0	-3
O=C(Nc1ccnn1C1CCN(Cc2ccc(Cl)cc2)CC1)C1CCCC1	8.8	-3	23	i	-6	7	2.1	0.6	-2	35
CC1CCN(c2ccc(C(=O)NCc3cccs3)cn2)CC1	.	-14	7	.	.	.	.	-0.3	1	.
CC(C)c1cccc(C(C)C)c1NC(=O)COC(=O)[C@H](C)NC(N)=O	-0.1	0	-26	i	15	15	2.7	-2.0	.	4
O=C(CN(C(=O)CCC(=O)Nc1nccs1)c1ccccc1F)NCC1CCCO1 (stereo not given)	.	2	0	.	.	.	.	-0.2	1	-2
CC1COC(=O)C(NNc2ccc(Cl)c(Cl)c2)=N1 (stereo not given)	-2.3	.	-9	i	2	-14	1.4	0.9	?	10
Cc1cccc(NC(=O)NNS(=O)(=O)c2ccc(F)cc2)c1	-2.9	-6	-25	i	-12	-10	2.1	3.1	.	5
Fc1ccc(N/N=C2/CC(c3ccccc3)Oc3ccccc32)c(F)c1 (stereo not given)	.	-7	31	.	.	.	.	-2.7	4	-4

These rows are one share of the data. The share of hits here may be higher or lower than overall.
